# Screening data: PubChem BioAssay, National Center for Advancing Translational Sciences (NCATS)
# miR-21 FLuc: raises the signal of a miR-21 reporter; HeLa miR-21 FLuc reporter, luciferase, 48 h; Potency, µM (highest dose often 38.3 µM), inactives show at the highest dose reporter change, positive = more light; 340,000 tested, under 10 active; active = well fitted rising curve with a large enough effect; inconclusive = small, poorly fitted or top-dose-only effect; inactive = no such curve, though single readings can be large or run the other way;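 also: % of control where 0% means no effect; miR-21 action dims this reporter so a rising signal means less miR-21 action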
#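 HeLa cells stably expressing CMV-driven firefly luciferase with a downstream miR-21 binding sequence, endogenously expressing miR-21, were treated with titrations (up to about 40uM final) for 48 hours at 37 degree Celsius. Luciferase luminescence was read after lysis.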
# Rango dissoc inh: inhibitors of RanGTP-induced Rango-importin beta complex dissociation; Biochemical FRET Rango-importin beta, RanGTP-induced dissociation; Potency, µM (titrated, usually from 46.1 µM), without a hit: top-dose activity change, negative = inhibition; 340,000 compounds, 0.071% hits; AID 540253; O95149+P62826; active means falling FRET ratio curve, often poorly fitted, with flat reads before Ran was added; inconclusive means other falling curves, or compound fluorescence or quenching; inactive means flat or rising ratio curve;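 also: potency is read from the fitted curve at half-maximal effect; % of control where 0% means no effect; nearly all actives have a fitted effect of over 45% in size; -100% = wells without RanGTP and RCC1; the record marks most hits as doubtful in a second field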
#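 Recombinant Rango FRET biosensor (EYFP–snurportin 1 IBB–cerulean CFP10) at 0.1 uM premixed with 0.25 uM importin beta in PBS, 1 mM DTT, 0.02% Tween-20, 0.1% BSA. Compound added 5 min; RanGTP-RCC1 (0.6 uM Ran, 2 mM GTP, 0.2 uM RCC1) then triggers release, read at 45 min.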
# Rango-impB inh: prevents formation of the Rango-importin beta complex; Q14974; Rango CFP/YFP FRET sensor + importin beta, 45 min; Potency, µM (top dose mostly 92.2 µM), for inactives: at the highest dose inhibition of complex formation; 340,000 compounds, 0.031% hits; AID 540263; active = rising FRET ratio curve, often small or poorly fitted; inconclusive = mostly compound fluorescence or quenching in the first reads; inactive = flat curves in all reads;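 also: potency is read from the fitted curve at half-maximal effect; 0% = DMSO wells and 100% = buffer wells lacking importin beta; nearly all actives have a fitted effect of over 15% in size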
#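 FRET biosensor (snurportin 1 IBB flanked by EYFP and cerulean), 50 nM, with compound 5 min, then 0.125 microM importin beta in PBS, 1 mM DTT, 0.02% Tween-20, 0.1% BSA. CFP/YFP ratio read after 45 min at room temperature; pre-read flags interference.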
# GLA inh pH 4.5: blocks human alpha-galactosidase A at pH 4.5; purified enzyme, 4-MU-alpha-Gal fluorescence, pH 4.5; AID 1467; 230,000 tested, under 10 active; activity change, negative = inhibition, % at 105 µM; P06280; inconclusive = small, poorly fitted or top-dose-only inhibition, or a rising curve; inactive = flat fitted curve, though single readings scatter; no compound was filed as active;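 also: 0% = full activity with enzyme and -100% = basal without enzyme; dose as in the result columns while the protocol names 77 µM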
# Target sequence (P06280 whole entry, looked up): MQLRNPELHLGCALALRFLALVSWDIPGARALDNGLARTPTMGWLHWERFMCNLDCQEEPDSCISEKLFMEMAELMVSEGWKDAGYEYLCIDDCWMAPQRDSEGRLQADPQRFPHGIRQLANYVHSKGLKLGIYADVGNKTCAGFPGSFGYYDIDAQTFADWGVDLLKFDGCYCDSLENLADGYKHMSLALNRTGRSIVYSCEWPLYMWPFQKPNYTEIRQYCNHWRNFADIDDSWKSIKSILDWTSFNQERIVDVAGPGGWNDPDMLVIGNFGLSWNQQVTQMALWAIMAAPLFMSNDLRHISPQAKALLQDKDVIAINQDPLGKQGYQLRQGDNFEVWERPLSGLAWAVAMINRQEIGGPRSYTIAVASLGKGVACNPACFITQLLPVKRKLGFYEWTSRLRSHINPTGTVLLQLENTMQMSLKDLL
# An asterisk follows results filed as active; ? = inconclusive; nt = no result given; & = joins results of further samples. Not all compounds are listed, so the mix of outcomes need not match the whole.
# The line under a structure holds: miR-21 FLuc	Rango dissoc inh	Rango-impB inh	GLA inh pH 4.5
> CCOc1ccc(NC(=O)CC(=O)Nc2ccc(OCC)cc2)cc1
 : -19%	-4%	-0.5%	nt
> CCCOc1ccc(/C(O)=C2\C(=O)C(=O)N(c3ccccn3)C2c2ccccc2F)cc1C (centres undefined)
 : -4%	-19%	-1.9%	nt
> CC(=O)N1CCOc2ccc(S(=O)(=O)N3CCN(c4cc(C)ccc4C)CC3)cc21
 : 8%	-1%	3.8%	nt
> Cc1c(O)ccc(C(=O)COc2ccc(F)cc2)c1O
 : -48%	5%	-0.8%	-2
> O=C(NCCCCc1ccccc1)c1cccc(NC(=O)C2CCCCC2)c1
 : nt	28%	0.3%	nt
> O=C(Nc1sc2c(c1C(=O)O)CCC2)c1ccccc1
 : 17%	-4%	5.8%	-4
> Cc1cc(CNC(=O)c2cccc([N+](=O)[O-])c2)c2ccccc2n1
 : 7%	10%	0.2%	12
> CCN(CC)S(=O)(=O)c1ccc(C)c(NC(=O)CNCCN(C(C)C)C(C)C)c1
 : -7%	-25%	-0.1%	3
> CCOc1ccc(Br)cc1C(=O)N/N=C/c1cccnc1
 : -10%	2%	-1.3%	nt
> O=C(Nc1cccnc1)c1cc(-c2ccc(Br)cc2)on1
 : -17%	19%	-2.2%	5
> CCSc1ccc(C(=O)Nc2cccc(C)n2)cc1[N+](=O)[O-]
 : -17%	3%	0.9%	-1
> COc1ccccc1NC(=O)CCN1C(=O)/C(=C/c2cc(OC)c(OC)c(OC)c2)SC1=S
 : -2%	6%	0.7%	nt
> CCN(CC(=O)NCc1ccc(F)cc1)C(=O)/C=C/c1ccc(S(=O)(=O)N(CC)CC)cc1
 : 26%	3%	-2.9%	nt
> O=C1CSC(c2ccc(Cl)c(Cl)c2)N1c1nccs1 (centres undefined)
 : nt	6%	-5.2%	nt
> O=C(N/N=C/C=C/c1ccc([N+](=O)[O-])cc1)c1cccs1
 : -14%	-6%	26µM*	6
> Cc1occc1C(=O)Nc1ccc2ccccc2c1
 : -39%	29%	-0.4%	-7
> O=C(N/N=C/c1[nH]c2ccccc2c1Cl)c1cccc(Br)c1
 : 2%	?	?	-11
> CCO/C(=C/c1sc2ccc(OC)cc2[n+]1CCCS(=O)(=O)[O-])CC
 : -2%	-4%	-2.7%	-8
> Cc1ccc(Nc2nc(C(=O)NCCCN3CCOCC3)cs2)cc1
 : -5%	-9%	0.9%	7
> COC(=O)Cn1cnc2sc3c(c2c1=O)CCCC3
 : -1%	-17%	-0.2%	5
> C=CCNCCOCCOc1ccc(C)cc1Br
 : -32%	?	-1.1%	-5
> O=S(=O)(c1cccc(F)c1)N1CCc2sccc2C1c1ccc(OC(F)(F)F)cc1 (centres undefined)
 : 5%	-11%	?	4
> CN(C)/C=C1\SC(=S)N(N2C(=O)C3C4C=CC(C4)C3C2=O)C1=O (centres undefined)
 : -5%	1%	-3.0%	-9
> COc1ccc(CCN2C(=O)c3[nH]nc(-c4ccccc4O)c3C2c2cccc(O)c2)cc1OC (centres undefined)
 : 10%	0%	4.3%	2
> O=S(=O)(c1ccc(Cl)s1)N1CCNCC1
 : nt	-10%	-5.6%	nt
> Cc1cc(C)c(C#N)c(N2CCSCC2)n1
 : -10%	-24%	0.5%	-1
> CC(=O)c1ccc(NC(=O)c2cc(S(=O)(=O)N3CCOCC3)ccc2C)cc1
 : 7%&6%	-1%	2.6%	nt
> COCCN1C(=O)C(=O)/C(=C(/O)c2ccc(S(=O)(=O)N3CCOCC3)cc2)C1c1ccc(C(C)C)cc1 (centres undefined)
 : -2%	nt	nt	-3
> COCCNC(=O)/C(C#N)=C\c1ccc(CNS(=O)(=O)c2ccccc2)o1
 : -1%	-2%	0.1%	-7
> Cc1ccc(C)c(C(=O)CCC(=O)NCc2ccc(Cl)cc2)c1
 : -1%	-8%	-6.9%	3
> Cc1cc(C)nc(OC(C(=O)O)C(OCCc2ccccc2)(c2ccccc2)c2ccccc2)n1 (centres undefined)
 : 16%	40%	0.7%	nt
> N#CCSc1nnc(-c2cccnc2)n1-c1ccccc1
 : -5%	10%	1.8%	-6
> CCN(CC(=O)Nc1ccc2c(c1)OCCO2)C(=O)/C=C/c1ccccc1
 : -30%	43%	4.0%	0
> CC(=O)N1CCN(S(=O)(=O)c2cccc(C(=O)Nc3ccccc3N3CCOCC3)c2)CC1
 : 0%	-5%	2.2%	1
> Cc1ccc(C)n1NC(=O)c1ccc(Cl)cc1Cl
 : -4%	7%	0.2%	0
> Cc1ccc2c(Cl)cc(Cl)c(OCC(=O)NC3CCS(=O)(=O)C3)c2n1 (centres undefined)
 : 0%	-1%	5.3%	-1
> COC(=O)C1(NC(=O)NC2CCCCC2)CCCCC1
 : 6%	-10%	5.8%	8
> NC(=O)CSc1nc(C2CC2)nc2sc3c(c12)CCCC3
 : -37%	15%	3.3%	-21
> CC(=O)N1CCc2ccc(S(=O)(=O)N3CCN(C)CC3)cc21
 : -3%	41%	2.0%	1
> CNC(=O)C1CC(=O)N(Cc2ccccc2)C(=Nc2ccc(OC)cc2)S1 (centres undefined)
 : -10%	1%	-0.6%	-1
> O=C(NNc1ccccn1)C(c1ccccc1)c1ccccc1
 : 0%	-16%	-1.7%	-8
> CCc1ccc(C(=O)COC(=O)CNC(=O)CNS(=O)(=O)c2ccccc2)cc1
 : -4%	-1%	-4.2%	nt
> O=C(CCC(=O)N1CCOc2ccccc21)NCCCN1CCOCC1
 : -1%	0%	-2.2%	nt
> CN(C)CCCNC(=S)N1CCN(c2nc(-c3ccccc3)cs2)CC1
 : -28%	-8%	-0.1%	nt
> COc1ccc(C(=O)Nc2ccc(N3CCN(C(=O)c4ccccc4C)CC3)cc2)cc1
 : 10%	2%	?	nt
> COC(=O)Cc1cc(=O)[nH]c(/N=C(\N)Nc2ccc(C)cc2)n1
 : 0%	10%	6.9%	5
> O=C(OC1CCOC1=O)c1cncc(Br)c1 (centres undefined)
 : 4%	4%	-0.9%	-1
> CCOc1ccccc1N(CC(=O)NCC1CCCO1)C(=O)CCC(=O)Nc1cc(C)on1 (centres undefined)
 : 0%	1%	1.1%	nt
> Cc1sc2ncnc(SCC(=O)N3CCCC3=O)c2c1C
 : -3%	1%	3.0%	0
> O=C(COc1ccc(Cl)cc1Cl)OCC(=O)c1ccc[nH]1
 : nt	15%	1.4%	nt
> Cc1cc(C)c(S(=O)(=O)NCCCn2ccnc2)cc1C
 : -6%	1%	-1.4%	nt
> CCOc1ccc(OCCC(=O)N(CC(=O)Nc2ccccc2C(F)(F)F)Cc2ccco2)cc1
 : nt	-12%	-1.1%	nt
> COc1ccccc1NC(=S)N(Cc1ccco1)Cc1cc2cc(C)cc(C)c2[nH]c1=O
 : -2%	-3%	0.0%	-5
> COc1ccc(C(=O)NNC(=O)Cc2ccc(Cl)cc2)cc1
 : 0%	6%	3.7%	0
> Oc1c(Cl)cc(Cl)cc1/C=C/c1ccc2cccc(O)c2n1
 : 28%	?	?	-10
> CNC(=S)NNC(=O)CSCc1c(Cl)cccc1Cl
 : 1%	1%	-0.6%	0
> Cc1ccc(S(=O)(=O)N2CCOCC2)cc1NC(=O)COC(=O)CCC(=O)c1cccs1
 : 3%	6%	-7.3%	1
> Cc1cc(C(=O)NNc2c(Cl)cccc2Cl)n(C(C)(C)C)n1
 : -3%	-8%	-2.6%	-10
> CCOC(=O)/C(=N/Nc1ccccc1)c1csc(Nc2ccccc2)n1
 : -9%	6%	?	-15
> NC(=O)C1CCN(c2ncnc3c2c(-c2ccccc2)cn3-c2ccccc2)CC1
 : -2%	-8%	-0.7%	-5

# Carrying on:
# The line under a structure holds: miR-21 FLuc	Rango dissoc inh	Rango-impB inh	GLA inh pH 4.5
> O=C(CCN1C(=O)S/C(=C\c2ccccc2)C1=O)Nc1ccc(S(=O)(=O)Nc2nccs2)cc1
 : -2%	2%	-0.3%	1
> C=CCN(CC=C)S(=O)(=O)c1ccc(NC(=S)NC(=O)/C=C/c2ccccc2)cc1
 : -19%	6%	0.4%	?
> O=C(COC(=O)Cc1ccccc1F)NCCNC(=O)COC(=O)Cc1ccccc1F
 : nt	-1%	3.8%	nt
> Cc1nnc(SCC(=O)Nc2sccc2C#N)s1
 : -10%	-10%	?	nt
> CC(C)(C)CC(=O)Nc1cc2c3c(c1)CCC(=O)N3CCC2
 : -3%	-2%	2.1%	nt
> Cc1nc(C(=O)N(C)C)nn1-c1ccc(Cl)cc1Cl
 : -6%	1%	4.9%	-4
> CCc1ccc(NC(=O)Cn2cccc2)cc1
 : -32%	4%	2.4%	-5
> Cc1ccc(Cl)cc1N1CCN(C(=O)CCS(=O)(=O)c2ccc3c(c2)NC(=O)CO3)CC1
 : ?	-1%	-3.2%	nt
> CCN(CC)c1ccc(/C=C2\C(=O)N(c3nnc(C)c(=O)[nH]3)N=C2C)cc1
 : 14%	-20%	-3.0%	-1
> CC(OC(=O)CCCSc1nc2ccccc2s1)C(=O)NC(N)=O (centres undefined)
 : 21%	11%	0.2%	8
> COc1ccc(N2CC(C(=O)N(C)CC(=O)Nc3ccc(Cl)c(C(F)(F)F)c3)CC2=O)c(OC)c1 (centres undefined)
 : nt	-14%	1.2%	nt
> CCOc1cc(NC(=S)NCCCN(C)C)c(OCC)cc1NC(=O)c1cccs1
 : -9%	1%	2.3%	4
> c1ccc(-c2cn(-c3ccccc3)c3[n+]2CCCS3)cc1
 : 21%	1%	-2.9%	-7
> CCOc1ccc(C(=O)/C=C/Nc2ccc(S(=O)(=O)Nc3cc(C)nc(C)n3)cc2)cc1
 : -30%	?	?	nt
> COc1cc(C(=O)N/N=C/c2cn(Cc3cccc(F)c3)c3ccccc23)ccc1O
 : -5%	0%	-0.6%	nt
> CC(C)(C)C1=CC(=O)C(N2CCOCC2)=CC1=O
 : -9%	7%	2.9%	-6
> COc1ccc(N2CC(C)Cn3c2nc2c3c(=O)n(CCc3ccccc3)c(=O)n2C)cc1 (centres undefined)
 : 1%	21%	1.8%	2
> Cc1ccc(S(=O)(=O)N(C)C)cc1NC(=O)COC(=O)c1n[nH]c(=O)c2ccccc12
 : 0%	-6%	1.7%	4
> Cc1nn(-c2ccccc2)c2c1C(c1ccc(O)c(O)c1)N1C(=N2)C(Nc2ccccc2)=Nc2ccccc21 (centres undefined)
 : 20%	?	?	-1
> Cn1nnnc1SC(C(=O)Nc1cccc(C(F)(F)F)c1)c1ccccc1 (centres undefined)
 : -6%	-5%	-1.7%	-14
> Cc1ccc(N(Cc2cc(=O)[nH]c3ccccc23)C(=O)C(C)C)c(C)c1
 : 1%	21%	3.4%	nt
> CC(C)(C)OC(=O)NCCCC[C@H](NC(=O)c1nc[nH]c1C(=O)NCc1ccc(CNC(=O)OC(C)(C)C)cc1)C(=O)OC(C)(C)C
 : 20%	0%	0.5%	nt
> COc1ccc(/C=N/N2CCOCC2)cc1COc1ccc(Cl)cc1
 : -3%	2%	-1.0%	-18
> CC(OC(=O)CN1C(=O)NC2(CCCC2)C1=O)c1ccc(F)cc1 (centres undefined)
 : nt	-6%	-0.3%	nt
> O=C(CCS(=O)(=O)c1ccc(Cl)cc1)Nc1ccccc1Br
 : 1%	1%	-0.1%	nt
> Cc1nc(N)nc(SCc2ccc([N+](=O)[O-])cc2)c1N
 : -6%	-1%	5.6%	nt
> O=C(NCCCc1ccccc1)C1CCN(S(=O)(=O)c2ccc(F)cc2)CC1
 : 6%	1%	-1.5%	nt
> CCC(C)C(=O)Nc1ccc(S(=O)(=O)Nc2nccs2)cc1 (centres undefined)
 : -3%	15%	2.1%	nt
> Cc1nc2ccccn2c1C(=O)NNS(=O)(=O)c1ccc(Cl)cc1
 : 3%	14%	-2.3%	-1
> COc1ccc(S(=O)(=O)N2CCCCC2)cc1NC(=O)CSc1ncccn1
 : nt	10%	-5.2%	nt
> COc1ccc(CNC(=O)/C=C/c2ccccc2[N+](=O)[O-])cc1
 : -15%	5%	0.1%	2
> COc1ccc(S(=O)(=O)N2CCN(C(=O)CCSc3ccccc3)CC2)cc1
 : nt	1%	?	nt
> CNc1ccccc1C(=O)OCC(C)=O
 : -1%	-5%	-0.5%	6
> O=S(=O)(c1ccccc1)c1cc(O)ccc1O
 : 0%	-4%	-4.1%	-1
